STK33 inh = blocks human STK33 kinase activity | inhibition, % at 10 µM | Q9BYT3 | 320,000 compounds, 0.073% hits | purified STK33, MBP phosphorylation, ADP-Glo luminescence;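 active = inhibition at or above 25%, using the most active replicate where run in duplicate; inactive = inhibition below 25%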
Target sequence (Q9BYT3 whole entry, looked up): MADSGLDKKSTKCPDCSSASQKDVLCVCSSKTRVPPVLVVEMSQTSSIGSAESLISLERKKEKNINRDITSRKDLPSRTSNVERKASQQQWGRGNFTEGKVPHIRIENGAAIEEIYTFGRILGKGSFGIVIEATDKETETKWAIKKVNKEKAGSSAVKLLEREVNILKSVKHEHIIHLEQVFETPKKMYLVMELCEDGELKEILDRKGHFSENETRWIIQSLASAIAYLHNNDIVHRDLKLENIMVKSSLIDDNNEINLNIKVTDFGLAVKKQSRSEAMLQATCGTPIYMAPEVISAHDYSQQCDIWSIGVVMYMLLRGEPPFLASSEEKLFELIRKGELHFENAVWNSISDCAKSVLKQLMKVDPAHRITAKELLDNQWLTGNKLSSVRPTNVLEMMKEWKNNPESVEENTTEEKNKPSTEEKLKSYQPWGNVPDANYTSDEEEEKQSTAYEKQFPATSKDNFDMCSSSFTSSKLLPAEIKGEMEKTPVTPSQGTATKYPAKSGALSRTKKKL
Kir21 block = Kir2.1 (mouse) channel inhibition | P35561 | HEK293-Kir2.1, FluxOR thallium flux fluorescence; active compounds read low | B-score at 10 µM | 310,000 compounds, 0.85% hits | AID 1672;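 active = fluorescence ratio B-score at or below minus 3 SD of library scores, with starting-brightness B-score within 2 SD, cut at about -4.2 in these data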;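 also: channel flux triggered by added potassium and thallium sulfate stimulus; B-score of peak minus minimum fluorescence over baseline after thallium stimulus; more negative B-score means stronger Kir2.1 block with less thallium influx; some compounds called inactive have numbers as strong as hits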
Target sequence (P35561 whole entry, looked up): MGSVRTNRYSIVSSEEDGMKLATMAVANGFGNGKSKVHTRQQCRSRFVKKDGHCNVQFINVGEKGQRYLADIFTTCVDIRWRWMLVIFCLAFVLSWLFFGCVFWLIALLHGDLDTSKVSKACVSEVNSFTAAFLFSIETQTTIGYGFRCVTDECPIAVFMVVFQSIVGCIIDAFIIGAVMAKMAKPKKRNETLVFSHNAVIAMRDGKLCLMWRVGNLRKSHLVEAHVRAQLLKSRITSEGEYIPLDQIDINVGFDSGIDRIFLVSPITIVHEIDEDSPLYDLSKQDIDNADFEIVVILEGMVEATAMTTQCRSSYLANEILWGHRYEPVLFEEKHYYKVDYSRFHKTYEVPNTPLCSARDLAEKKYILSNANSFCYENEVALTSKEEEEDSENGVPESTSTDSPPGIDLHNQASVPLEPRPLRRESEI
The depositor's hits bear a star; / = not tested or not shown.

SMILES | STK33 inh | Kir21 block
CC(C)c1ccc(NC(=S)NNC(=O)c2cccnc2)cc1 | -0.9 | 0.63
CCOC(=O)C(C)Sc1cnccn1 (configuration not stated) | -1.5 | 0.26
Cc1ccc(C)c(NC(=O)CSc2nc3c(c(=O)n2C)SC(C)C3)c1 (configuration not stated) | -0.7 | -2.3
CCN(CC)S(=O)(=O)c1ccc(NC(=O)c2c(-c3ccccc3)noc2C)cc1 | 0.2 | -0.03
COc1ccc(-n2c(C)cc(-c3csc(N)n3)c2C)cc1 | -1.0 | 0
COc1ccc(Cl)cc1C(=O)NNC(=O)COC(=O)CC(NC(C)=O)c1ccccc1 (configuration not stated) | -0.2 | -1.5
CCOc1ccc(N(CC(=O)Nc2ccc(C)c(C)c2)S(C)(=O)=O)cc1 | -1.4 | 0.36
CC(C)CC(=O)NCc1ccc2[nH]c3c(c2c1)CCCC3 | -0.6 | -1.5
CCOc1ccc(C(=O)NNC(=O)CCNC(=O)c2ccco2)cc1OC | -1.7 | 0.24
COc1cccc(C(=O)NC(Cc2ccccc2)c2ccc3c(c2)OCCCO3)c1 (configuration not stated) | -0.2 | 0.04
COc1ccc(S(=O)(=O)N2CCOC23CCN(S(C)(=O)=O)CC3)cc1 | -0.8 | -2.2
CCC(C(=O)O/N=C(\N)c1ccccc1)c1ccccc1 (configuration not stated) | -0.8 | -1
Cc1ccc(SCC(=O)O/N=C(\N)c2ccc([N+](=O)[O-])cc2)cc1 | -1.3 | -0.87
COc1ccc(CCN2CC(C(=O)Nc3cccc(C(C)=O)c3)CC2=O)cc1OC (configuration not stated) | -0.1 | 0.62
CCn1nnnc1SCC(=O)NCc1ccc2c(c1)OCO2 | -0.9 | -0.12
CC1Cc2ccccc2N1CC(=O)NC(c1ccccc1)c1ccccc1 (configuration not stated) | -0.5 | 0.05
COc1ccc(/C=C(/NC(=O)c2cccs2)C(=O)N2CCOCC2)cc1OC | -1.9 | 0.67
O=C(N/N=C/c1ccccn1)c1cc(-c2ccc(Cl)s2)[nH]n1 | -0.2 | 0.63
CC(=O)N1CCN(CCN=CC2=C(O)CC(C)(C)CC2=O)CC1 | -0.1 | 2.1
CSc1ccccc1C(=O)Nc1ccc(C)cc1C | -1.6 | -0.16
O=C(c1ccco1)N1CCN(C(=S)Nc2ccc(Br)cc2Cl)CC1 | 2.0 | 0.03
Cc1ccc(NC(=O)c2cc3cc(OC(F)(F)F)ccc3[nH]2)cc1 | 0.0 | 0.15
O=C(/C=C/c1ccccc1[N+](=O)[O-])NCCc1ccc(F)cc1 | -1.3 | -0.66
COCCNC(=O)CCc1c(C)nc2c(-c3ccc(F)cc3)c(C)nn2c1C | -0.8 | 1.1
CC(C)CCn1cnc2c(cnn2-c2ccc(F)cc2)c1=O | 0.2 | 0.49

Next structures follow:
SMILES | STK33 inh | Kir21 block
CCN(CC)CC(=O)Nc1c(C#N)cnn1-c1ccccc1 | -0.1 | 1.4
O=C(Cc1ccccc1)CC1(O)C(=O)Nc2ccccc21 (configuration not stated) | -0.3 | -0.78
CC(NC(=O)c1ccco1)C(=O)OC(C)C(=O)NCc1ccccc1 (configuration not stated) | / | -0.02
CC(=O)NC(=S)Nc1ccc(NC(=O)c2cccs2)cc1 | -1.1 | 0.23
O=C(NCc1ccco1)NCC(F)(F)F | 2.9 | 0.03
Cc1oc2ccc(O)cc2c1C(=O)c1ccccc1 | -1.7 | 1.2
Cc1ccc(C(=O)CSc2nc3ccccc3o2)cc1 | -6.5 | 0.05
O=C(c1ccccc1)c1cnc(Nc2ccccc2Cl)s1 | 0.6 | 0.01
Cn1c(=S)[nH]c2c(c1=O)C(C)(C)Cc1ccccc1-2 | 3.9 | -0.93
COc1ccc(C(OC(=O)c2ccco2)C(=O)NCc2ccc(C)cc2)cc1 (configuration not stated) | -1.5 | -2.1
COc1ccc2cc(C(=O)NCCO)sc(=O)c2c1OC | -0.4 | -1.2
O=c1[nH]cnc2cc(Cl)ccc12 | 0.8 | -0.11
C=CCOc1ccc(C2C(C#N)=C(N)N(Nc3ccccc3)C3=C2C(=O)CC(C)(C)C3)cc1OC (configuration not stated) | -0.7 | -0.01
Cn1ncc2c(N3CCCCC3)nc(NCCCO)nc21 | -0.5 | 1.1
O=C(NC(=S)NC1CCCCC1)c1ccccc1 | 0.4 | 0.15
Cc1ccc(S(=O)(=O)Nc2ccc(S(=O)(=O)Nc3nccs3)cc2)c([N+](=O)[O-])c1 | -0.4 | -1.9
CCOc1ccc(N(CC(=O)Nc2ccc(OC)cc2OC)S(=O)(=O)c2c(C)[nH]c(=O)[nH]c2=O)cc1 | 8.9 | -0.92
CCc1ccc(C(=O)C(C)OC(=O)c2cccc(S(=O)(=O)N3CCOCC3)c2)cc1 (configuration not stated) | 8.0 | -0.14
Cc1cccc(N2CCN(CC(=O)Nc3nccs3)CC2)c1C | -0.8 | 0.78
C/C(CCc1ccc2c(c1)OCO2)=N\N=C(/N)SC1CC(=O)N(c2ccccc2F)C1=O (configuration not stated) | -0.1 | 0.26
Clc1ccc(Cc2ccc(SCc3ccccc3)nn2)c(Cl)c1 | -2.4 | -1.2
Cc1cc(=O)n2c3ccccc3n(C)c2n1 | -12 | 2.6
Cn1nnnc1SCC(=O)NC(=O)Cc1ccccc1 | -1.2 | -0.01
O=C(N/N=C/c1cccc(O)c1)NC1CCCCC1 | -0.4 | -0.01
CC(Sc1nc(N2CCCCC2)c2c(c1C#N)CCCC2)C(=O)O (configuration not stated) | -2.7 | 1.8

Next part, starting with the last 4 of the part before.
SMILES | STK33 inh | Kir21 block
Cc1cc(=O)n2c3ccccc3n(C)c2n1 | -12 | 2.6
Cn1nnnc1SCC(=O)NC(=O)Cc1ccccc1 | -1.2 | -0.01
O=C(N/N=C/c1cccc(O)c1)NC1CCCCC1 | -0.4 | -0.01
CC(Sc1nc(N2CCCCC2)c2c(c1C#N)CCCC2)C(=O)O (configuration not stated) | -2.7 | 1.8
COc1ccc(C(=O)OCN2C(=O)c3ccccc3C2=O)cc1 | -0.3 | 0.21
Cc1ccnc(SCC(=O)Nc2oc(-c3ccccc3)c(-c3ccccc3)c2C#N)n1 | -0.7 | 0.07
CCn1c2ccccc2c2cc(N=C3SC(CC(=O)Nc4ccccc4OC)C(=O)N3CCOC)ccc21 (configuration not stated) | -1.6 | 1.9
CCn1cc(CN2CCC(C(=O)Nc3cccc(-c4cccc(Cl)c4)c3)CC2)cn1 | 3.5 | -6.6*
Cc1cc(NC(=O)C2CCCCC2)ncc1NC(=O)c1ccccn1 | 0.8 | 0.65
CCCNC(=O)CC1Sc2ccccc2NC1=O (configuration not stated) | -2.1 | 0.97
CSc1ccc(/C=N/NC(=O)c2cccc(O)c2)cc1 | -0.9 | 0.48
Cc1cc(C)nc(SCC(=O)NC2CCCC2)n1 | -0.8 | -0.23
CCc1ccc(NC(=O)CCc2nnc3ccc(N4CCC5(CC4)OCCO5)nn23)cc1 | 3.7 | 0.03
CCCn1c(=O)[nH]c(=O)c2c1nc(-c1ccc(OC(F)F)c(OC)c1)n2CCOC | 0.0 | 0.76
COc1cccc2c1cc1c(=O)n(CC(=O)NCCCc3ccccc3)nc(C)n12 | -0.2 | 2.1
COc1ccc(-c2csc(NC(=O)c3cc(=O)c4ccccc4o3)n2)cc1OC | -1.3 | -0.02
CC(C)COc1ccc(C(=S)N2CCCC2)cc1 | -0.7 | 1.1
CC(C)NC(=O)COc1ccc(S(=O)(=O)N2CCOCC2)cc1 | -3.2 | -1.3
CCOCCCN(C(=O)c1snc(C(N)=O)c1N)C(C(=O)NCCC(C)C)c1ccc(F)cc1 (configuration not stated) | 0.0 | -0.21
N#CC(=C1Nc2ccccc2N1)S(=O)(=O)c1ccccc1 | -0.9 | 0.49
CCOC(=O)C(CC)n1cnc2c(cnn2-c2ccc(Cl)cc2)c1=O (configuration not stated) | -1.1 | -0.1
CC(C)OCCCNc1nc2c([nH]1)c(=O)n(C)c(=O)n2C | 1.1 | 0.66
CCOc1cccc2sc(=NC(=O)CCS(=O)(=O)c3ccc(F)cc3)n(C)c12 | 0.5 | 1.2
CC(C)=N/N=C1/NC(=O)C(Cc2ccccc2)S1 (configuration not stated) | -3.3 | 1.3
CCCCCCN(C(=O)CCCCCN1C(=O)NC(c2ccc(-c3ccccc3)cc2)C(C(=O)OCc2ccccc2)=C1C)C(C(=O)NCCCC)c1ccc(OCC(=O)OC)c(C(=O)OC)c1 (configuration not stated) | -0.3 | -0.75
CN1CCN(C(=O)c2ccc3c(c2)NC(=O)/C(=C/c2ccccc2)S3)CC1 | 3.0 | 0.08
Cc1sc2ncnc(Sc3nc4ccccc4s3)c2c1C | 0.0 | 0.4
Cc1ccc(CCNC(=O)CN2C(=O)COc3ccccc32)cc1 | -1.2 | 0.1
CN(C)c1cc[n+](CC(=O)c2ccc(Br)cc2)cc1 | -0.6 | -1.6

7 of the compounds above, as comma-separated lines:
molecule,STK33 inh,Kir21 block
COc1ccc(-n2c(C)cc(-c3csc(N)n3)c2C)cc1,-1.0,0
COc1ccc(Cl)cc1C(=O)NNC(=O)COC(=O)CC(NC(C)=O)c1ccccc1 (configuration not stated),-0.2,-1.5
CCOc1ccc(N(CC(=O)Nc2ccc(C)c(C)c2)S(C)(=O)=O)cc1,-1.4,0.36
CC(C)CC(=O)NCc1ccc2[nH]c3c(c2c1)CCCC3,-0.6,-1.5
CCOc1ccc(C(=O)NNC(=O)CCNC(=O)c2ccco2)cc1OC,-1.7,0.24
COc1cccc(C(=O)NC(Cc2ccccc2)c2ccc3c(c2)OCCCO3)c1 (configuration not stated),-0.2,0.04
COc1ccc(S(=O)(=O)N2CCOC23CCN(S(C)(=O)=O)CC3)cc1,-0.8,-2.2

New compounds follow
SMILES | STK33 inh | Kir21 block
COc1ccc2c(c1)c(C(=O)CN1CCN(Cc3ccccc3)CC1)c(C)n2C | 1.2 | -0.54
O=C(Nc1ncc(S(=O)(=O)c2ccc([N+](=O)[O-])cc2)s1)c1cccc2ccccc12 | 0.3 | -0.25
CCNC(=O)CN(c1ccc(CC)cc1)S(C)(=O)=O | -1.9 | 0.42
CCOC(=O)Nc1nnc(Cc2ccc(Cl)c(Cl)c2)s1 | -0.4 | -0.69
Cc1nnc(N2CCc3ccccc3C2)[nH]c1=O | -0.5 | 0.14
CCC(C)n1[nH]c(=O)cc1N (configuration not stated) | -1.1 | -1
Cc1cc(N2CCN(C)CC2)nc2ccc(NC(=O)c3cccnc3Cl)cc12 | 0.0 | -0.65
COc1ccc(N2CCN(C3CCCN(Cc4ccc(F)cc4Cl)C3)CC2)cc1 (configuration not stated) | 0.2 | -0.89
COc1ccc(C(C)=O)cc1CN1CCCCC1 | -1.3 | -0.34
Cc1ccc(S(=O)(=O)/N=C(/Nc2ccc([N+](=O)[O-])cc2)c2ccccc2)cc1 | 0.1 | 0.47
CCCC(=O)Nc1ccc(C(=O)N2CCCC2)cc1 | -0.3 | 0.16
Cc1cccnc1NC(=O)Nc1cccc(C(F)(F)F)c1 | -1.0 | -1.1
CC(Sc1nnc(NCc2ccccc2)s1)C(=O)Nc1ccc2c(c1)C(=O)c1ccccc1C2=O (configuration not stated) | 0.4 | 0.69
CCCn1cc(C(=O)N(C)C2CCCN(Cc3ccccc3F)C2)c(C)n1 (configuration not stated) | -2.9 | 0.14
Cc1cc2c(cc1S(=O)(=O)Nc1cccc(F)c1C)NC(=O)CO2 | 0.0 | -0.39
Cc1ccc(Nc2c(-c3ccc(C)o3)nc3cnccn23)cc1 | 0.6 | -2.1
NNC(=O)c1cc2ccccc2cc1O | 2.4 | 0.05
Cc1ccc(NC(=O)/C=C/c2cccc(C(F)(F)F)c2)cc1 | -0.4 | 0.89
CC(=O)c1ccc(OCc2cc(=O)n3ccsc3n2)cc1 | / | 0.42
CCCOC(=O)C1=C(C)NC2=C(C(=O)CCC2)C1c1cc(OC)ccc1OC (configuration not stated) | 0.9 | 0.24
O=C(COc1ccc(Cl)cc1Cl)Nc1ccc2nc3n(c(=O)c2c1)CCCC3 | 0.2 | 0.52
CC(C)(C)c1cc[n+](-c2[nH]c(=O)sc2/C=N/NC([S-])=Nc2ccccc2)cc1 | 1.2 | -9.3
COc1cc(S(=O)(=O)N(Cc2ccccc2)CC2CCCO2)ccc1-n1cnnn1 (configuration not stated) | -1.1 | -1.8
CC1=CC(c2ccccc2)n2nnnc2N1 (configuration not stated) | 1.4 | 0.12
COc1ccc(NC(=O)CCNC(=O)c2ccco2)c(OC)c1 | 0.5 | -0.5

Other structures follow.
SMILES | STK33 inh | Kir21 block
O=C(O)CN1C(=O)NC2(CCOc3ccccc32)C1=O (configuration not stated) | 0.4 | -0.02
O=C(NC1CCN(S(=O)(=O)c2ccc(F)cc2)CC1)c1ccc(F)cc1 | -0.8 | -1.6
CCOc1ccccc1NC(=O)CN(c1ccc(C)cc1)S(=O)(=O)c1c(C)n[nH]c1C | 0.7 | 0.66
COc1ccccc1-n1c(SCC(=O)N2CCOCC2)nc2ccccc2c1=O | -0.9 | -0.04
CCn1c(COc2ccccc2C)nnc1SCC(=O)NC1CCCC1 | -1.4 | -1
COC(=O)c1ccccc1NC(=O)NCc1ccncc1 | 0.7 | 1.1
COc1ccc([N+](=O)[O-])cc1CSc1nnc(NC(C)=O)s1 | -0.2 | 0.77
Cc1cc(N2CCOCC2)nc2ccc(NC(=O)CCC(=O)N3CCN(c4ccc(F)cc4)CC3)cc12 | -0.4 | 1
Cc1cc(C)c(NC(=O)CNC(=O)COC(=O)C2CCN(c3ccc(C(F)(F)F)cn3)CC2)c(C)c1 | 0.8 | 1.7
Nc1ncnc2sc3c(c12)CCNC3 | 0.1 | 1.2
Cc1nc(-c2ccccc2)cc(-c2ccccc2)n1 | -1.2 | -0.28
CCOC(=O)COc1ccc(Cl)cc1C1NC(=O)NC(C)=C1C(C)=O (configuration not stated) | -1.6 | -0.06
Cc1ccccc1NC(=O)c1cccnc1 | -0.9 | -0.02

Bioassay records from PubChem BioAssay.

These rows are one share of the data, and most or all hits are left out here.
